Screening data from PubChem.
Beta cell apopt – blocks beta cell apoptosis. INS-1E cytokine-induced death, ATP luminescence, 48 h; percent of positive-control rescue, neutral wells zero. hit rate 0.8% among 300,000. protection from apoptosis, % (test concentration not listed);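 active means all replicates at 75% or more, or half of them and the mean; inconclusive means half reach 75% but not the mean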;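 further: 0% = cytokine-treated negative control wells and 100% = positive control rescue; higher means more ATP so stronger rescue from cytokine killing; wells of about 40 µL received 100 nL stock; the first replicate is given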
LANA-H2B inh – blocks KSHV LANA binding to histone H2A/H2B | Q9QR71 | cell-free LANA-H2A/H2B peptide, fluorescence polarization | inhibition, % (test concentration not listed) | hit rate 0.6% among 320,000 | AID 2629; in the data active means inhibition mostly above about 10%, no sharp cut-off; inactive means mostly below about 6.7%;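 further: stock transfer was 7.5 nL into about 10 µL; 0% = median of vehicle wells and 100% = median of positive control wells; one replicate is shown; the record names a cut of 25% in any replicate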
T cruzi inh – T. cruzi replication inhibition. T. cruzi beta-gal in NIH3T3, luminescence, 90 h. hit rate 1.4% among 300,000. inhibition, % (test concentration not listed);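 active means mean inhibition across valid replicates above about 55%, limit read from the data; inconclusive means mean below that limit but half or more replicates reach it; inactive means mean below it, under half of replicates reach it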;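 further: signal also drops with host cell toxicity which is not excluded here; 0% = plate median of DMSO wells and 100% = zero luminescence signal; higher percent means less beta-gal luminescence so fewer parasites; stock transfer was 50 nL into about 50 µL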
UCH37 inh – inhibitors of human deubiquitinating enzyme UCH37; purified proteasome/UCH37, Ub-AMC cleavage fluorescence; hit rate 0.33% among 330,000; Q9Y5K5; inhibition, % (test concentration not listed); AID 588478;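 active means mean of two replicates above 20%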;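 further: 0% = compound-free wells with enzyme and 100% = wells lacking proteasome; stock transfer was 100 nL into about 20 µL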
Target sequence (Q9Y5K5 whole entry, looked up): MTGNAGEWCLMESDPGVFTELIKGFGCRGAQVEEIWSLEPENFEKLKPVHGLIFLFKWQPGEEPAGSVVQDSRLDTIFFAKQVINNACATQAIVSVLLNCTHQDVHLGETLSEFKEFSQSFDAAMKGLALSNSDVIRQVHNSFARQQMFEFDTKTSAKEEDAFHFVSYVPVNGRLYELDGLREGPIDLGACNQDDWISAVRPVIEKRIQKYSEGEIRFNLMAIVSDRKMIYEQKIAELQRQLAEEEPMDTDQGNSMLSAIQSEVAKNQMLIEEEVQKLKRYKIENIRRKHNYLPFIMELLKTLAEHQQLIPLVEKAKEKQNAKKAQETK
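Assay system: Proteasome-bound UCH37. Buffer or medium: pH 7.4 Tris-HCl (50 mM) with ovalbumin, ATP-MgCl2, DTT. Incubation: 30 min preincubation with enzyme, 25 min cleavage at room temperature. Measured by: fluorescence, ex 355 nm, em 460 nm. Read-out basis: percent inhibition. Control set: wells without proteasome as full block, compound-free enzyme plus substrate as uninhibited.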
Beta2AR agonist – human beta-2 adrenergic receptor agonism by FAP; response, % (test concentration not listed); P07550; hit rate 0.43% among 340,000; AID 504454; Am2.2-beta2AR cells, FAP receptor internalization, flow cytometry; reference of the scale not given here;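 active means response above a set limit, near 3 SD of response in nonfluorescent compounds, cut at about 42% in these data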;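 further: stock transfer was 100 nL into about 11 µL; a reference agonist was the positive control; negative values mostly stem from fluorescent compounds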
Target sequence (P07550 whole entry, looked up): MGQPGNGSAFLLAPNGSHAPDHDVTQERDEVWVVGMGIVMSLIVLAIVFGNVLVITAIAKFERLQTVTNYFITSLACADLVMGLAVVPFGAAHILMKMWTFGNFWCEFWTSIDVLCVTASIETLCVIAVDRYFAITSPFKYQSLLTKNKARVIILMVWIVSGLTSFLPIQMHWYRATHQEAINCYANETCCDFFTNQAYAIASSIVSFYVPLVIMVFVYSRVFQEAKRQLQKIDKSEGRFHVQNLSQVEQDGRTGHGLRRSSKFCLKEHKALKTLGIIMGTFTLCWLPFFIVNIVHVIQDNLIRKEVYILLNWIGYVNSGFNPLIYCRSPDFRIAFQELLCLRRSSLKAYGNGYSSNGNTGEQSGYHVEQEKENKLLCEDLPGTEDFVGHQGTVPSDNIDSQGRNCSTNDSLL
Calb FLC – C. albicans growth modulation with fluconazole; C. albicans CaCi-2 (fluconazole-resistant clinical isolate) + fluconazole, Alamar Blue growth, 48 h; growth inhibition, % (concentration not given with the values); hit rate 0.57% among 300,000;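 active means most replicates above 75%; inconclusive means exactly half above 75%; inactive means most below 75%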;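 further: all wells also contain fluconazole at 8 µg/ml as a sub-toxic cotreatment; 0% = median of DMSO wells and 100% = median of geldanamycin control wells; wells of about 8 µL received 7.5 nL stock; the first replicate is given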
RanGTP-Imp inh – disruptors of Ran-importin-beta complex formation – biochemical, FRET, CFP-Ran, YFP-importin-beta, homogeneous, primary screen; hit rate 1.1% among 300,000; inhibition, % (no concentration beside the values); cell-free CFP-Ran/YFP-importin-beta FRET ratio;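 active means most replicates above 15%; inconclusive means exactly half above 15%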;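 further: 0% = DMSO wells and 100% = Ran loaded with GDP instead of GTP; wells of about 40 µL received 100 nL stock; the first replicate is given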
Bfl-1 A1 inh – inhibitors of the anti-apoptotic protein A1, read as caspase activation | MEF A1-2A-BIM cells, Caspase-Glo 3/7 luminescence, 3 h; percent of clofoctol response, vehicle zero | AID 2462 | caspase activation, % (no concentration beside the values) | hit rate 0.066% among 330,000;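 active means over half of replicate activation scores above 10%, or exactly half above 10 with the replicate mean above 10; inconclusive means replicate mean below 10 yet half the replicates above 10; inactive means over half of replicates below 10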;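 further: wells of about 30 µL received 50 nL stock; many hits fall short of the cut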
Active calls of the source: *; u = inconclusive; x = not tested or not shown.

Order of values – Beta cell apopt, LANA-H2B inh, T cruzi inh, UCH37 inh, Beta2AR agonist, Calb FLC, RanGTP-Imp inh, Bfl-1 A1 inh
O=C(NCc1ccccc1)c1nc[nH]c1C(=O)NCc1ccccc1
 : -7, -9.0, -5, -2.2, 7, 7, 2.6, 0.1
CCN(CC)c1ccc(C=N/C(C#N)=C(\N)C#N)cc1
 : 1, -4.0, -12, x, 5, -3, 2.5, -0.5
CCSc1nnc(-c2cccc(S(=O)(=O)N(CC)CC)c2)n1Cc1ccccc1
 : 3, 1.5, 21, 3.6, 4, -17, 6.0, -0.3
NC(=O)c1nsc(C(=O)N(Cc2ccco2)C(C(=O)NCC2CCCO2)c2ccc(F)cc2)c1N (stereo not given)
 : x, x, 2, -31, -5, -7, u, x
CC(C)(C)C(=O)Nc1cc2c3c(c1)CCN3C(=O)CC2
 : -3, 1.9, -3, 5.2, -6, 33, 0.9, -0.2
CC(Sc1nnc2c(n1)C1CCC2(C)C1(C)C)C(=O)Nc1ccccc1 (stereo not given)
 : -14, -2.4, -21, 1.2, -11, -6, 27*, 0.5
Nc1nonc1-n1nnc(C(=O)N/N=C/c2ccc(Cl)cc2Cl)c1CN1CCCCC1
 : 1, 1.1, -14, x, 13, -7, 3.6, 0.6
O=C(CNC(=O)c1cccc(Br)c1)N/N=C/c1ccc2c(c1)OCO2
 : 0, -9.8, 4, x, 17, 0, -2.4, 0.6
CCSc1nnc([C@H](Cc2ccccc2)NC(=O)OC(C)(C)C)o1
 : -8, 2.3, 2, 2.3, -2, -22, 5.0, 0.0
COc1cccc(NS(=O)(=O)CC23CCC(CC2=O)C3(C)C)c1 (stereo not given)
 : -3, -1.4, 7, 2.9, 4, -22, 1.8, 0.4
CC(C)(C)n1nc2c(c1NC(=O)c1ccco1)CS(=O)C2 (stereo not given)
 : 2, -7.6, 10, 1.2, 2, -5, 1.9, -0.6
O=C(Nc1cccnc1)c1ccc(Cl)c(Cl)c1
 : -10, -3.1, -10, 5.4, -4, 5, 2.0, -3.1
COc1ccccc1-c1nc(SCC(=O)NCc2ccco2)c2c(=O)n(C)c(=O)n(C)c2n1
 : -6, -0.3, 27, -21, -3, 1, 6.8, 0.1
COc1ccc(C(=O)CSc2nnc(-c3ccccc3)o2)cc1
 : -2, -0.2, 4, -2.9, 0, -8, u, 0.0
CC1CCC(NS(=O)(=O)c2ccc3c(c2)CC(=O)N3)CC1 (stereo not given)
 : -5, 1.2, 8, 2.4, -4, 20, -0.7, 0.0
COc1ccccc1N1CCN(C(c2ccc(C)cc2)c2nnnn2C(C)C)CC1 (stereo not given)
 : 1, -2.3, 14, 2.7, -1, -7, 3.7, -0.1
CCOC(=O)C1=C(C)Nc2sc(C(=O)c3ccc(F)cc3)c(N)c2C1c1ccc(C(=O)OC)cc1 (stereo not given)
 : 1, 2.9, 50, -19, -23, 8, -70, 0.2
CCc1nccn1C(=O)c1cnn2c(C(F)F)cc(-c3ccccc3)nc12
 : -14, 0.2, -7, x, x, 2, u, -1.2
Cc1ccc(N(CC(O)Cn2c3ccccc3c3ccccc32)S(C)(=O)=O)c(C)c1 (stereo not given)
 : -2, -4.6, 13, 5.5, 5, 43, 2.3, x
COc1ccccc1C(=O)Nc1nnc(S(=O)(=O)N2CCCCC2)s1
 : -4, -0.3, 16, 1.5, 2, -8, -2.0, -0.7
CC1CCN(CCCN2C(=O)C3C(C(=O)Nc4ccc(Cl)cc4)C4C=CC3(O4)C2C(=O)NC2CCCCC2)CC1 (stereo not given)
 : -1, -2.3, 2, 4.3, 4, -9, 2.8, -0.1
Cc1cc(C(=O)N/N=C/c2ccccn2)n[nH]1
 : -5, -0.3, -8, x, -13, 7, -0.4, 0.5
CCCC(=O)c1cc(-c2nc3ccccc3n2C)n(C)c1
 : 0, -0.4, 3, 2.0, -8, 1, 0.4, 1.1
Nc1ccccc1C(=O)Nc1cccc(C(=O)O)c1
 : 1, 1.2, -3, -23, -4, -14, 5.9, -8.7
O=C1CCC(/C=C/c2ccccc2)=NN1Cc1ccc(F)cc1
 : -5, -2.5, 1, -0.1, 3, 44, -3.5, 0.5
COc1ccc(-c2noc(CN(C)S(=O)(=O)c3ccc(Cl)cc3)n2)cc1OC
 : 2, 1.7, 18, 2.9, 0, 4, -1.4, 1.1
CCOc1cc2c(cc1OCC)C(c1ccc(F)cc1)NCC2 (stereo not given)
 : 0, 3.9, -9, 6.7, 1, -14, -2.5, -1.1
CCC(CC)C(=O)Nc1nnc(S(=O)(=O)Nc2ccccc2C)s1
 : 6, 5.7, 5, 0.4, 1, 1, 0.0, -0.2
O=C(COC(=O)c1ccc(O)cc1)NC(=O)NCc1ccccc1
 : -4, 4.2, x, 0.5, 0, x, x, -0.5
O=C(NCCC(=O)N1CCC2(CC1)NCCc1[nH]cnc12)c1cccc(C(F)(F)F)c1
 : -2, 1.8, 6, 2.2, -2, -13, 2.5, -0.3
O=C(CSc1ncccn1)N/N=C/c1ccc2c(c1)OCO2
 : -1, 1.4, 0, x, -13, -1, -0.7, -1.0
CC(Oc1ccccc1)C(=O)NC1=NCCS1 (stereo not given)
 : -8, 2.5, -13, 4.8, 2, -25, 2.9, 0.2

2 entries from above, tab-delimited.
SMILES	Beta cell apopt	LANA-H2B inh	T cruzi inh	UCH37 inh	Beta2AR agonist	Calb FLC	RanGTP-Imp inh	Bfl-1 A1 inh
COc1ccc(-c2noc(CN(C)S(=O)(=O)c3ccc(Cl)cc3)n2)cc1OC	2	1.7	18	2.9	0	4	-1.4	1.1
CCOc1cc2c(cc1OCC)C(c1ccc(F)cc1)NCC2 (stereo not given)	0	3.9	-9	6.7	1	-14	-2.5	-1.1

Record cards (already shown).
COc1ccc(-c2noc(CN(C)S(=O)(=O)c3ccc(Cl)cc3)n2)cc1OC across the screens: Beta cell apopt: 2; LANA-H2B inh: 1.7; T cruzi inh: 18; UCH37 inh: 2.9; Beta2AR agonist: 0; Calb FLC: 4; RanGTP-Imp inh: -1.4; Bfl-1 A1 inh: 1.1
COc1ccccc1N1CCN(C(c2ccc(C)cc2)c2nnnn2C(C)C)CC1 (stereo not given) across the screens: Beta cell apopt: 1; LANA-H2B inh: -2.3; T cruzi inh: 14; UCH37 inh: 2.7; Beta2AR agonist: -1; Calb FLC: -7; RanGTP-Imp inh: 3.7; Bfl-1 A1 inh: -0.1
